Compound activity (PubChem BioAssay)
VDR inhibitor: Inhibitors of the vitamin D receptor (VDR): qHTS. Vitamin D3 receptor (Homo sapiens), P11473. VDR-SRC2-3 peptide fluorescence polarization, 2 h. Potency, µM, inactives show max response, negative = inhibition, usual class: inhibitors. 400,000 compounds, 0.93% hits. AID 504847, 2011; active means well fitted inhibition curve with a large enough effect; inconclusive means small, poorly fitted or top-dose-only effect, or another doubt; inactive means no such curve, though single readings can be large or run the other way; further: series mostly up to about 120 µM
Target sequence (P11473 whole entry, looked up): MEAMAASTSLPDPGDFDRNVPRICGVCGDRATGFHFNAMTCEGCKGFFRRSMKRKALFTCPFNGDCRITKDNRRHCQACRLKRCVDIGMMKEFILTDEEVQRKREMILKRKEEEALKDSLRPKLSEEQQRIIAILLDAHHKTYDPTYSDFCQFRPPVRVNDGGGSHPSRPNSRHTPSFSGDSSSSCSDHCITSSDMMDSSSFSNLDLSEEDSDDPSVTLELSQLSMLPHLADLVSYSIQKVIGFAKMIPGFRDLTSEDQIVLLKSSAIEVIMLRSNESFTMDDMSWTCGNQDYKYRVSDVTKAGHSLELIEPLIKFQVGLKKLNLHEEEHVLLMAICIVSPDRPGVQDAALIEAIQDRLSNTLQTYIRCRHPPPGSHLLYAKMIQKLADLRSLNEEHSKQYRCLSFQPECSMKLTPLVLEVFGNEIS
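VDR–SRC2-3 interaction, FP format. Cmpds 23 nl via pintool, brief spin, 2 h ambient incubation.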
The depositor's hits bear a star; u = inconclusive. On the % scale 0 is the no-effect control and ±100 the full control effect; potency means the concentration at half of the fitted maximal effect. The list is partial; rates above refer to the full screens.

structure | VDR inhibitor
COc1ccc(CS(=O)(=O)CC(C)(O)c2ccccc2)cc1 (centres undefined) | 16.0%
Nc1cc(N2CCCC2)ccc1[N+](=O)[O-] | 11.8%
CCOC(=O)c1sc2nc3c(SCCC(=O)O)cc(C(=O)c4cc(OC)ccc4O)cn3c(=O)c2c1C | -4.5%
Cc1ccc2c(c1)cc1c(=O)n(CC(=O)NC(C)CCc3ccccc3)nc(C)n12 (centres undefined) | -1.1%
CCn1ncc(CN2CCN(C(=O)Nc3ccccc3C(=O)OC)CC2)c1C | 4.4%
CCc1nc(C)c(C(=O)N2CCCC(C(=O)Nc3cccc(-c4cccc(C)c4)c3)C2)o1 (centres undefined) | 19.3%
COc1ccccc1CNC(=O)COc1cccnc1[N+](=O)[O-] | 13.0%
COc1ccc(S(=O)(=O)N2CCCCC2)cc1NC(=O)CCCNC(=O)c1ccc(Cl)cc1 | -2.0%
COC(=O)c1ccc(COC(=O)CSCC(=O)Nc2ccc(C)cc2C)cc1 | 0.0%
COc1cc2c(cc1OC)C(C)N(C(=S)NC(=O)c1ccccc1)CC2 (centres undefined) | 7.6%
CC(=O)Nc1nc(Cn2nnc(-c3ccc4c(c3)OCO4)n2)nc(N(C)C)n1 | -4.7%
COc1ccc2[nH]cc(CCNC(=O)Cn3cc(C)c(=O)[nH]c3=O)c2c1 | 7.6%
Cc1nc(SCC(=O)Nc2cc(Cl)ccc2[N+](=O)[O-])nc(C)c1C | -7.7%
COc1ccc2nc(C)cc(N/N=C/c3ccccc3)c2c1 | -14.2%
CSc1nnc(-c2cc(Br)ccc2N=Cc2c(C)[nH]n(-c3ccccc3)c2=O)c(=O)[nH]1 | -3.5%
CCOC(=O)CC1COCCN1C(=O)c1ccc2oc(Cc3ccccc3)nc2c1 (centres undefined) | -19.5%
O=C(CN1CCN(S(=O)(=O)c2ccccc2)CC1)Nc1ccccc1Cl | -5.2%
CC1(C)CC(=O)C=C(NCCCN2CCCC2=O)C1 | -15.4%
OC1C[N+]2(CCCCC2)C1 | 12.8%
Cc1cccc(S(=O)(=O)c2cn(Cc3ccccc3)c3cc(N4CCC(C)CC4)c(F)cc3c2=O)c1 | -8.6%
COC(=O)c1cc(=O)c2c(C)nc(C(Cl)(Cl)Cl)nc2[nH]1 | -1.1%
CC(OC(=O)CCc1nc2ccccc2c(=O)[nH]1)C(=O)Nc1cccc(C(F)(F)F)c1 (centres undefined) | 12.6%
COc1cccc(CN2CCN(Cc3ccc(C)o3)CC2CCO)c1 (centres undefined) | -2.1%
O=C(CSc1nnc2ccc(-c3ccccn3)nn12)NCCc1ccccc1 | -9.6%
COCc1cc(C)[nH]c(=O)c1C#N | 10.3%
CCOc1ccc(NC(=O)CCNC(=O)c2ccco2)cc1 | -3.7%
Cc1ccc(CSCC(=O)N2CCCC2)cc1 | 8.4%
CCCCNC(=O)c1cc(-c2ccc3c(c2)OCO3)on1 | -7.8%
CC1CCc2nc(NC(=O)Cc3cccs3)sc2C1 (centres undefined) | -1.3%
COC(=O)C(Cc1cncn1COCc1ccccc1)NC(=O)OC(C)(C)C (centres undefined) | 3.2%
O=C(NCc1ccccc1)c1ccc2oc(=O)n(Cc3ccccc3)c2c1 | 9.3%
COc1ccccc1-c1cc(C(=O)N/N=C/c2ccc(C)o2)c2ccccc2n1 | -6.7%
CCc1ccc(-c2csc3ncn(CC)c(=O)c23)cc1 | 1.1%
CCC(CO)NCc1ccc(-c2ccccc2)cc1 (centres undefined) | 5.1%
Cn1c(SCC(=O)NNC(=O)c2ccccc2)nnc1C1CC1 | 10.6%
CCCSc1nsc(SCCC)c1C#N | 17.1%
CCOC(=O)c1c(C)[nH]c(C(=O)COC(=O)/C=C/c2ccc3c(c2)OCO3)c1C | u
CN(C)c1nc(-c2cccnc2)nc(-c2ccccc2)c1C#N | -0.2%
CCOc1ccc(NC(=O)c2cccs2)c([N+](=O)[O-])c1 | 0.4%
CCOC(=O)N1CCC(NC(=O)C(NS(=O)(=O)c2ccc3c(c2)CCN3C(C)=O)C(C)C)CC1 (centres undefined) | 1.5%
COc1ccc(-c2nc(N)nc(C(F)(F)F)c2-c2csc(C)n2)c(O)c1 | -7.3%
O=C1NC(=O)C(=Cc2ccco2)S1 | 10.3%
O=C(COc1ccc(S(=O)(=O)NC2CCCCC2)cc1Cl)NCc1ccc2c(c1)OCO2 | 4.0%
CN1C(=O)N(CC(=O)Nc2sccc2C(N)=O)C(=O)C12CCCCC2 | 17.0%
CCOC(=O)[C@@H]1[C@H]2COc3cc(OC)ccc3[C@@H]2N2C(=O)N(c3ccc(Cl)cc3)C(=O)[C@]12C | 2.3%
CC(NC(=O)c1ccccc1Br)c1nnc(SCC(=O)NC2CCCCC2)n1C (centres undefined) | -1.1%
NS(=O)(=O)c1ccc(CCNc2nc(CN3CCCCC3)nc3sc4c(c23)CCC4)cc1 | 7.0%
CCOC(=O)[C@@H]1[C@H]2COc3ccc(Br)cc3[C@@H]2N2C(=O)N(c3ccc(OC)cc3)C(=O)[C@@]12C | -3.2%
Cc1ccccc1C1c2[nH]c3ccccc3c2C[C@H]2C(=O)N(c3ccccc3C(=O)NCCCN3CCOCC3)C(=O)N12 (some centres undefined) | -7.6%
Cc1ccc(S(=O)(=O)NCCC(=O)NCC(c2cccs2)N(C)C)cc1 (centres undefined) | -14.2%
Cn1c(N)c(C#N)c2c(c1=S)CSC(C)(C)C2 | -14.6%
CCOC(=O)Cn1c(=O)oc2ccc(C)cc21 | 8.6%
CCOC(=O)N1CCN(C(=O)c2ccc3c(=O)n(CCc4ccc(OC)c(OC)c4)c(=O)[nH]c3c2)CC1 | 0.7%
Clc1cccc(CSc2ccc(-c3cccs3)nn2)c1 | 1.6%
COc1ccccc1-c1nn(Cc2ccccc2)cc1C(=O)NCC(c1ccco1)N1CCCC1 (centres undefined) | 10.8%
O=C(Nc1c(C(=O)c2ccc(Cl)cc2)oc2ccccc12)c1cc(=O)c2ccccc2o1 | 12.4%
O=C(Nc1ccc(Cl)cc1F)c1cc(S(=O)(=O)N2CCCCC2)ccc1F | -0.3%
Cc1cccnc1NC(=O)c1sc2ccccc2c1Cl | -20.9%
CS(=O)(=O)N1CCC2(CCCN(C(c3ccccc3)c3ccccc3)C2)CC1 | -11.1%
Cc1cc(C(=O)Cn2cnc3ccc(Cl)cc3c2=O)c(C)n1C1CC1 | -7.8%

Continued.
Molecule | VDR inhibitor
COc1cccc(OCC(O)CN2CCc3ccccc3C2)c1 (centres undefined) | 18.9%
O=C1c2cccc([N+](=O)[O-])c2C(=O)N1c1ccccc1 | -13.4%
CCCCSc1nnc(-c2c[nH]c3ccccc23)n1C | 7.5%
Cc1ccc(NC(=O)COC(=O)COc2cccc3c2OC(C)(C)C3)cc1S(=O)(=O)N1CCOCC1 | 13.1%
CCCCN(CC)CCCNC(=O)CS(=O)(=O)Cc1nc(-c2cccc(OC)c2)oc1C | 0.3%
O=C(NCCO)c1nc(NCCO)c2ccccc2n1 | -11.7%
COc1ccc(N(C(=O)Cc2cccs2)C(C(=O)NC2CCCCC2)c2cccn2C)cc1OC (centres undefined) | -14.4%
Nc1nc(NC(=O)Cc2ccccc2)nn1-c1ccccc1 | -13.1%
Cc1n[nH]c(C)c1CCC(=O)N/N=C/c1c[nH]c2ccccc12 | 10.5%
COc1ccccc1NC(=O)NCCCl | 3.0%
CCOCCCN(CCC#N)S(=O)(=O)c1ccc(S(=O)(=O)N2CCCC2)cc1 | -3.9%
CCN(CC)CCNS(=O)(=O)c1ccc2[nH]cc(C(=O)O)c(=O)c2c1 | 9.0%
COc1ccc(S(=O)(=O)N2CCN(Cc3cccc(OC)c3)CC2)cc1 | -3.5%
CCCc1cc(=O)[nH]c(SCC(=O)Nc2cc(S(=O)(=O)N(CC)c3ccccc3)ccc2Cl)n1 | 1.5%
CN(Cc1ccccc1)c1nc2c(c(=O)[nH]c(=O)n2C)n1CCOc1ccccc1 | 3.6%
Cc1ccc(C(=O)Nc2ccc(Cl)cn2)cc1 | -9.9%
Cc1cc(C)c(C(=O)CN2C(=O)NC3(CCCCCC3)C2=O)cc1C | 2.9%
CC(C)NC(=O)Nc1ccc2c(c1)C(=O)N([C@H](C)CO)C[C@H](C)[C@@H](CN(C)C(=O)Nc1ccc(C(F)(F)F)cc1)O2 | -5.2%
CSCCC(NC(=O)c1ccc([N+](=O)[O-])cc1Cl)C(=O)OCC(=O)N1CCN(C(C)=O)CC1 (centres undefined) | -19.9%
O=C(O)c1cccc(NC(=O)c2ccc3c(c2)C(=O)N(CC2CCCO2)C3=O)c1 (centres undefined) | -1.3%
COc1ccc(/C=C2\CCc3ccccc3C2=O)cc1Cn1cccn1 | -25.0%
CCOC(=O)c1ccccc1NS(=O)(=O)c1ccc(C)cc1 | -13.1%
Cc1sc2ncnc(NCc3ccccc3)c2c1C | 0.3%
CC(C)Cn1c(SC(C)C(=O)NCC2CCCO2)nc2ccc(Cl)cc2c1=O (centres undefined) | -31.9%
Cc1ccc(NC(=O)C2c3ccccc3Oc3ccccc32)nc1 | 1.5%
Cc1cc(N(CC(=O)O)S(C)(=O)=O)ccc1Br | -1.4%
CC1CCc2onc(C(=O)N3CCN(c4ccccc4)CC3)c2C1 (centres undefined) | 12.0%
CC(=O)N1CCN(S(=O)(=O)c2cccc(C(=O)NCCc3ccc(Cl)cc3)c2)CC1 | -2.1%
CCCCn1c(SCC(=O)Nc2cc(C)on2)nnc1-c1ccco1 | -0.3%
COc1ccccc1N1C(=O)c2ccc(C(=O)Nc3ccc(F)cc3)cc2C1=O | 3.4%
C/C(CC(=O)Nc1ccccn1)=N\NC(=O)c1cccc(C)c1 | -1.4%
CC1=NN(C(=O)COc2ccc(C)c(C)c2)C(O)(c2ccccc2)C1 (centres undefined) | 4.2%
O=C(c1cccc(F)c1)N1CCN=C1SCc1cccnc1 | -12.6%
CC(C)(C)c1ccc(/C=N/NC(=S)NCc2ccccc2)cc1 | 11.8%
Cc1ccc(F)cc1NC(=O)/C=C/c1ccc(S(=O)(=O)N2CCOCC2)cc1 | -4.7%
Cc1cccc(NC(=S)N2CCC(C(N)=O)(N3CCCCC3)CC2)c1C | 8.4%
Cc1ccc(N(C)S(=O)(=O)c2cccc(C(=O)NCC(c3ccco3)N3CCCC3)c2)cc1 (centres undefined) | 11.7%
O=C(C1=NN(c2ccccc2)C2C(=O)N(c3ccc(Cl)cc3)C(=O)C12)c1ccccc1 (centres undefined) | -15.9%
O=C1CC(=O)Nc2cc(S(=O)(=O)Nc3cccc(C(F)(F)F)c3)ccc2N1 | -18.9%
COc1cc(C(N)=O)cc(Cl)c1OCc1ccccc1 | -10.0%
Cc1cccc(C)c1NC(=O)CN(Cc1ccc(Br)cc1)S(=O)(=O)c1ccccc1 | -6.5%
N=c1nc(-c2ccccc2)n(-c2ccccc2)s1 | 12.6µM*
O=C(Nc1ccccc1-c1ccccc1)NC1CCN(C(=O)N2CCOCC2)CC1 | 11.1%
COC(C[C@H]1O[C@H]1[C@H](O)[C@@H](C)OCc1ccccc1)OC | -2.0%
Oc1ccc(-c2[nH]ncc2-c2nc3ccccc3s2)c(O)c1 | -6.6%
COC(=O)c1scc(S(=O)(=O)C(C)(C)C)c1N | 0.1%
CCN1C(=O)c2cccc3c(S(=O)(=O)NC(Cc4ccccc4)C(=O)O)ccc1c23 (centres undefined) | -6.1%
Cc1nc(C(C)NC(=O)c2cc(COc3ccc(C)c(C)c3)on2)c(C)s1 (centres undefined) | -12.3%
CC(C)c1ccc(NC(=O)c2cc(S(=O)(=O)N(C)C3CCCCC3)ccc2F)cc1 | 13.0%
COc1ccc(C(C)=O)c2c(O)cccc12 | 25.3%
COc1ccc(CNC(=O)C/C(C)=N/NC(=O)C(c2ccccc2)c2ccccc2)cc1 | -5.9%
Cc1cccc(C(=O)NCC(c2ccco2)N2CCc3ccccc32)c1 (centres undefined) | 0.0%
CCC(C)(c1ccc(C=O)s1)c1ccc(C=O)s1 | -4.0%
CCC(C(=O)NCc1ccco1)N(C(=O)CNS(=O)(=O)c1ccc(F)cc1)c1ccccc1F (centres undefined) | 5.2%
COc1ccc(C(=O)CSc2nnc(CN3CCCC3)n2-c2ccc(F)cc2)c(OC)c1 | 3.8%
O=C(OCC(=O)N1CCCC1=O)c1ccc(Cl)cc1[N+](=O)[O-] | -12.0%
CC(=O)Nc1ccc(NC(=O)CSc2nnc3c4cc(Br)ccc4n(C)c3n2)cc1 | 4.7%
CN(C)S(=O)(=O)c1cc(NC(=O)[C@H](Cc2ccccc2)N2C(=O)c3ccccc3C2=O)ccc1Cl | -3.0%
O=C1Nc2ccccc2C1=NN1CCCCCC1 | -11.7%
CCn1cc(C(=O)OC)c(=O)c2cc(S(=O)(=O)N(C)C3CCCCC3)ccc21 | -15.6%

Continuation.
Molecule | VDR inhibitor
CCOC(=O)c1cnc(SC)nc1Oc1cccc(NC(=O)c2cccc(Cl)c2Cl)c1 | 15.2%
O=C(CSCc1ccccc1Cl)NCc1ccc(Cl)c(Cl)c1 | -3.8%
Cc1ccc(OCC(=O)Nc2ccc3nn(-c4ccc(Cl)cc4)nc3c2)cc1 | -20.8%
CC(C)NC(=O)c1ccc2c3n(nc2c1)-c1ccccc1CO3 | 1.8%
COc1ccc(NC(=O)C(=O)NCCN2CCN(C(=O)c3ccco3)CC2)cc1 | -7.9%

Laid out differently: entries from further up
Molecule: O=C(CSCc1ccccc1Cl)NCc1ccc(Cl)c(Cl)c1
  VDR inhibitor: -3.8%
Molecule: Cc1ccc(OCC(=O)Nc2ccc3nn(-c4ccc(Cl)cc4)nc3c2)cc1
  VDR inhibitor: -20.8%
Molecule: CC(C)NC(=O)c1ccc2c3n(nc2c1)-c1ccccc1CO3
  VDR inhibitor: 1.8%
Molecule: COc1ccc(NC(=O)C(=O)NCCN2CCN(C(=O)c3ccco3)CC2)cc1
  VDR inhibitor: -7.9%
